# Six1-Eya2 inh: inhibitors of human Six1/Eya2 interaction; Q15475+O00167; AlphaScreen GST-Six1/His-Eya2 binding, biochemical; active compounds read low; control for the full effect not named in the record; activity change, % (no concentration beside the values); 360,000 compounds, 0.56% hits; in the data active = activity change below about -65%; inconclusive = about -30% to -65%; inactive = above about -30%; further: on the % scale 0 is the no-effect control and ±100 the full control effect
# Target sequence (O00167 whole entry, looked up): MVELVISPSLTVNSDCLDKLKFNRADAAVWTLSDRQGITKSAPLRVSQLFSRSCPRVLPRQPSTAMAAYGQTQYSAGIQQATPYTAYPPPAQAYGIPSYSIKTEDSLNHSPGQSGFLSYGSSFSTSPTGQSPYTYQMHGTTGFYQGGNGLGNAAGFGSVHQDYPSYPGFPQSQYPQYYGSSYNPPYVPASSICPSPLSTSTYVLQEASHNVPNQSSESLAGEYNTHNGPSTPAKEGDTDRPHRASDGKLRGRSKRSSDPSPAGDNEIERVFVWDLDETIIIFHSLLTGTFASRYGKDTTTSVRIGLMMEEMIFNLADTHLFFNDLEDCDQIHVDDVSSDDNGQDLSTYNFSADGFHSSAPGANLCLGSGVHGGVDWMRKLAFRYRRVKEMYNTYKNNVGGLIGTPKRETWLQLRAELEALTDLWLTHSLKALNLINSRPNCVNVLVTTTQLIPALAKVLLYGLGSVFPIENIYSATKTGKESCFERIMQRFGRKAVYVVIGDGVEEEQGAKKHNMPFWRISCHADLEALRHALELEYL
# Target sequence (Q15475 whole entry, looked up): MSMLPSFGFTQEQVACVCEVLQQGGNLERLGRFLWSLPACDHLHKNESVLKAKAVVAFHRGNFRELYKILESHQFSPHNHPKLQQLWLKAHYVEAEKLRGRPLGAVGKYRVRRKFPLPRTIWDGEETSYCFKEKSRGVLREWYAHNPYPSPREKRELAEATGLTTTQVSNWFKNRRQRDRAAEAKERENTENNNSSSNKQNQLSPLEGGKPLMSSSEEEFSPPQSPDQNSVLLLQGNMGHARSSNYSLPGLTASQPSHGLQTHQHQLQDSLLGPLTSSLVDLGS
#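 Compounds are tested against tagged Six1 and Eya2 proteins bridged by glutathione donor and nickel acceptor beads; after a one-hour incubation at 37 °C without light, AlphaScreen emission is recorded.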
# TRPV1 potentiator: enhances activation of the human vanilloid receptor TRPV1. 320,000 compounds, 0.02% hits. Q8NER1. potentiation, % at 8.33 µM. TRPV1-expressing cells, Fluo-8 calcium influx, capsaicin EC20 potentiation; host cell line not named in the record; control for the full effect not named in the record. AID 540277; active means potentiation above 80%; inconclusive means 30% to 80%; inactive means below 30%; further: 0% is about no effect
#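 Cells expressing TRPV1 were dye-loaded with Fluo-8 and read kinetically: 10 s baseline, 3 min after compound (agonist portion), then 2 min after EC20 capsaicin (allosteric enhancer portion). Calcium-bound dye fluorescence at 480/520 nm.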
# CtBP-E1A blk: inhibitors of CtBP/E1A interaction. AlphaScreen GST-E1A/His-CtBP binding, 1536-well; active compounds read low; control for the full effect not named in the record. activity change, % (concentration not given with the values). 340,000 compounds, 0.49% hits; in the data active means activity change below about -65%; inconclusive means about -30% to -65%; inactive means above about -30%; further: on the % scale 0 is the no-effect control and ±100 the full control effect
#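 Homogeneous bead-based format: GST-tagged E1A captured on glutathione donor beads, His-tagged CtBP on nickel acceptor beads; compounds precede bead addition by 2 h at 37 °C.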
# PINK1 expr mod: modulators of PINK1 expression; Potency, µM (titrated, usually from 76.6 µM), inactives show at the highest dose activation (PINK1 increase), hits mostly activators; 410,000 compounds, 0.2% hits; PINK1 immunofluorescence, high-content cytometry, 24 h; active = well fitted activation curve with a large enough effect; inconclusive = small, poorly fitted or top-dose-only effect; inactive = flat fitted curve, though single readings scatter; cell line not stated here;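 further: potency means the concentration at half of the fitted maximal effect; % of control where 0% means no effect; nearly all actives have a fitted effect of over 65% in size; a mitochondrial uncoupler was the plate control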
#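 Stable cell line, 250 cells/well, 12 h attachment; compounds pinned at 5 concentrations, 24 h; CCCP control. Fixed with nuclear dye, primary antibodies 12 h at 10 degrees C, secondary plus cell stain; laser-scanning cytometer read.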
# D2 agonist: agonists of human D2 dopamine receptor (beta-arrestin) | P14416 | DiscoveRx PathHunter D2 beta-arrestin, luminescence, 90 min; 100% = 57 uM dopamine signal | activation, % (concentration not given with the values) | 360,000 compounds, 0.084% hits | AID 624465; in the data active = activation above about 40%; inconclusive = about 15% to 40%; inactive = below about 15%; further: the text of the record calls up to 30% inactive
#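 Agonist mode: compounds alone added to overnight-plated D2 PathHunter cells for 90 min at 37 C, with 57 uM final dopamine (EC100) defining full response. Beta-arrestin recruitment detected by chemiluminescent reagent, read after 1 h at ambient temperature.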
# Sfp inh: inhibitors of Bacillus subtilis Sfp phosphopantetheinyl transferase; 310,000 compounds, 3.5% hits; AID 1490; Q9F4F7; Biochemical Sfp PPTase activity, qHTS; Potency, µM, for inactives: max response, negative = inhibition, actives largely listed as inhibitors; active means well fitted inhibition curve with a large enough effect; inconclusive means small, poorly fitted or top-dose-only effect, or another doubt; inactive means no such curve, though single readings can be large or run the other way;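 further: the enzyme is Sfp with the accession as filed and its product quenches rhodamine fluorescence; potency means the concentration at half of the fitted maximal effect; 0% = enzyme reaction without inhibitor and -100% = no enzyme wells; top concentration of the series not given in the record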
#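 Reaction rates are the 30-min fluorescence difference (ex 525, em 598 nm) in wells containing 15 nM Sfp, 5 uM rhodamine-CoA and 12.5 uM BHQ-2-YbbR at pH 7.6 with 10 mM MgCl2.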
# D2 PAM: positive allosteric modulators of human D2 dopamine receptor; AID 624464; potentiation, % (concentration not given with the values); 360,000 compounds, 0.23% hits; DiscoveRx D2 beta-arrestin cells, luminescence, 90 min; 100% = 57 uM dopamine signal; active = potentiation of 50% or more; inconclusive = 30% to 50%; inactive = 30% or less;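 further: tested on top of an EC20 dose of dopamine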
#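 PathHunter beta-arrestin assay in DiscoveRx D2 cells. Compounds were added with an EC20 of dopamine (50 nM final) for 90 min at 37 deg C. Luminescence was read 1 h after detection reagent, with 57 uM dopamine as the EC100 control.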
# * hit, by the source's call; ? = inconclusive; . = not tested or not shown; & = joins results of further samples; [ ] = dose if it differs, or a comment.
mol	Six1-Eya2 inh	TRPV1 potentiator	CtBP-E1A blk	PINK1 expr mod	D2 agonist	Sfp inh	D2 PAM
CC(=O)Nc1ccc(NC(=O)C(=O)N/N=C/c2cccnc2)cc1	5	8	.	0.0%	1.8	18%	2
CCCC(=O)Nc1nn(CC)c2nc3ccc(C)cc3cc12	5	-21	.	3.7%	-0.9	-2%	8
CC1Cc2ccccc2N1C(=O)c1cccnc1 (centres undefined)	2	29	-3	3.7%[38.3 µM]	0.6	-5%	-7
Cc1ccc(S(=O)(=O)N2CCC(C(=O)NNS(=O)(=O)c3ccc(Cl)cc3)CC2)cc1	4	?	1	-3.4%	-2.6	22%	-6
Cc1ccc(S(=O)(=O)NCCC(=O)NCc2ccccn2)cc1	-2	3	-17	-0.8%	0.9	.	4
CC(Oc1ccccc1F)c1nnc(SCC(=O)NCc2ccc3c(c2)OCO3)o1 (centres undefined)	-2	3	0	-1.8%	-6.1	.	-1
Cc1c(NC(=O)C(C)OC(=O)Cc2ccc(F)cc2)c(=O)n(-c2ccccc2)n1C (centres undefined)	11	0	6	-5.3%	1.4	.	-2
Cn1nc(C(F)(F)F)c(C(=O)Nc2ccc(F)cc2F)c1Sc1ccc(Cl)cc1	6	4	16	-0.3%[38.3 µM]	-2.6	17%	-16
CCC(=O)N1CCN(c2ccccc2NC(=O)COc2ccccc2Cl)CC1	-6	-7	-4	2.1%[38.3 µM]	-5.9	1%	-28
Cc1cc(-c2n[nH]c(=S)n2/N=C/c2ccccc2[N+](=O)[O-])n[nH]1	7	1	2	-2.6%	4.0	?	28
COc1ccc(-c2noc(-c3ccc4c(c3)OCO4)n2)cc1	9	11	5	0.6%	0.8	15%	-2
Cc1cc(NC(=O)CSc2nc(C)c(C)n2CC(C)C)no1	-7	.	-12	-2.3%	-1.6	.	-7
Nc1ccc(N=Nc2ccc(O)cc2)c(N)n1	?	.	3	-4.9%	-6.2	.	-25
CCCCNC(=S)N(C)/N=C/c1ccc(OCC(=O)Nc2c(C)cc(C)cc2C)c(OC)c1	-6	-18	0	7.3%	-2.9	?	-2
CCC(=O)N(CCN1CCOCC1)Cc1cc2cc3c(cc2nc1Cl)OCO3	3	9	-10	0.1%	-0.8	17%	-3
CN(C)c1cc[n+](CCC(=O)Nc2cccc([N+](=O)[O-])c2N)cc1	0	4	14	?	-4.0	14%	-11
COc1cccc(NC(=O)N2CCC(NC(=O)C(Cc3cccc(C)c3)NC(C)=O)CC2)c1 (centres undefined)	10	3	2	0.0%	-4.8	7%	-3
CC(C)[N+](C)(CCOC(=O)C1c2ccccc2Oc2ccccc21)C(C)C	-14	-4	-13	3.6%	-7.7	19%&6%&10%	-4
O=C(CCCCCNc1nc(=S)[nH]c2ccccc12)NCCC1=CCCCC1	-3	8	8	10%	0.8	26%	-6
O=C(C1=C[C@H](c2csc3ccccc23)C[C@H](OCCCCO)O1)N1CCOCC1	0	-27	0	1.5%	-2.5	13%	-10
COc1cc2c(c(OCC(=O)NC(C)C)c1)C(=O)O[C@@H](C)CCCC(=O)CCCCC2	1	-3	0	1.0%	-7.9	15%	-2
Cc1ccc(C)c(C2C(C#N)=C(N)Oc3cc(C)oc(=O)c32)c1 (centres undefined)	12	-16	10	0.7%	-2.0	4%	-17
O=C1Nc2ccc(Br)cc2C12NNc1ccccc1O2 (centres undefined)	?	7	?	-0.9%	-7.2&-18	-11%	-23
COC(=O)[C@@H]1C[C@@]2(O)[C@@H](O)[C@@H](O)[C@@H](O)C[C@H]2N1Cc1ccc(C(F)(F)F)cc1	6	-24	-1	0.9%	1.9	12%&0%	21
CN(C(=O)COC(=O)c1ccccc1Cc1ccccc1)C1CCS(=O)(=O)C1 (centres undefined)	6	7	3	0.5%	-0.7	9%	14
COc1ccc(/C=C/C(=O)OCC(=O)Nc2ccc3[nH]c(=O)[nH]c3c2)cc1OC	-10	-5	-5	-0.7%	-1.1	.	-8
CCOC(=O)C1=C(COC(=O)c2cc([N+](=O)[O-])ccc2Cl)NC(=O)NC1C (centres undefined)	-22	.	-9	1.5%	-1.7	.	2
OCC1(Cc2ccccc2)CCN(Cc2cc3ccccc3o2)CC1	-1	3	6	2.6%	?	6%	3
CS(=O)(=O)c1ccccc1C(=O)N(CCC1=CCCCC1)c1c(N)n(Cc2ccccc2)c(=O)[nH]c1=O	2	16	-2	0.0%	-2.1	.	14
CCC(=O)NC(NC(=S)Nc1cccc2cccnc12)C(Cl)(Cl)Cl (centres undefined)	-1	6	17	2.3%	-2.8	-20%	-7
NS(=O)(=O)c1cccc(NC(=O)COC(=O)C2CCCCC2)c1	8	-6	6	-0.4%	2.6	10%	-2
Cc1ccc(NC2=C(Cl)C(=O)OC2OC(C)C)c(C)c1 (centres undefined)	1	3	4	2.9%	-6.0	7%	3
Cc1ccc(C(=O)NC(=S)Nc2ccc3[nH]c(=O)[nH]c3c2)c(C)c1	-5	2	11	6.6%	-3.8	19%	-4
CC1=C(C(=O)N(C)C)CC(CC(=O)NCCCN(C)C)C(=O)N1Cc1ccc(F)cc1 (centres undefined)	6	.	2	0.4%	2.9	.	1
Cc1cc(C)c(NC(=O)CN2C(=O)NC3(CCCc4ccccc43)C2=O)c(Cl)c1 (centres undefined)	-7	-19	6	4.3%	-1.9	.	-1
Cc1ccc(Nc2ccc([N+](=O)[O-])ccc2=O)cc1	-7	.	-23	19%	2.7	.	6
O=C1NC(SCCCF)=N/C1=C/c1ccc(-n2cncn2)cc1	2	-3	0	8.9%	-2.8	0%	-3
CCOc1ccc(-n2ccnc(SCC(=O)NCCc3ccccc3)c2=O)cc1	7	-9	13	-4.0%	0.4	.	-6
Cc1ccsc1C1C(C#N)=C(N)OC2=C1C(=O)CC(C)(C)C2 (centres undefined)	-3	0	-2	-0.7%	-2.5	11%	-8
CCOC(=O)c1sc(N2C(=O)C(O)=C(C(=O)c3ccc(C)o3)C2c2cccc([N+](=O)[O-])c2)nc1C (centres undefined)	-8	12	-7	0.8%	1.4	?	-3
O=C1CCC(=O)N1CN(Cc1ccco1)CN1C(=O)CCC1=O	-3	7	-6	-1.4%	-0.9	11%	-5
Cn1c(=O)c2c(O)cc(=O)[nH]c2n(-c2ccccc2)c1=O	0	0	3	0.2%	3.0	19%	?
O=C(CCc1nnc(Cc2ccc(-c3ccccc3)cc2)o1)NCCc1ccccn1	-2	-1	2	0.0%	5.3	-9%	-5
O=C(NC(NCC1CCCO1)C(Cl)(Cl)Cl)c1cccc2ccccc12 (centres undefined)	2	-10	0	-1.0%	0.0	3%	-5
Cc1ccc(S(=O)(=O)N2CCN(C(=O)N(c3ccccc3)c3ccccc3)CC2)cc1	-1	-7	-5	-1.2%[38.3 µM]	0.3	-3%	2
Cc1ccn2c(=O)nc(SCC(=O)N3CCCc4ccccc43)nc2c1	-12	?	10	-0.1%	-3.8	.	-8
COc1ccc(OCCNc2c([N+](=O)[O-])c(=O)oc3ccccc23)cc1	-20	3	.	0.6%	6.1	16%	6
CC[C@]1(c2ccccc2C)ON(c2ccccc2C(F)(F)F)C1=O	19	7	28	8.2%	-1.2	.	4
O=C(Nc1ccc2[nH]ncc2c1)c1ccccc1Cl	-2	-1	-2	3.1%	-2.9	6%	-6
Oc1cccc2ccc(Nc3ccccn3)nc12	-91*	9	-100*	?	1.5	-5%	-2
CCN(CC)c1nc(C)nc2c1sc(=S)n2C	-2	-10	12	3.2%	-3.2	5%	-6
CC(C)c1ccc(CNC(=O)C(=O)NCC2CCCO2)cc1 (centres undefined)	6	6	19	9.0%	-2.8	11%	0
NC(=O)c1ccc(NC(=O)CSc2nnc(-c3ccncc3)n2Cc2ccco2)cc1	-2	-10	-19	0.0%	-4.4	-10%	-4
Cc1ccc(NC(=O)c2ccc(NCCCN3CCC(C)CC3)c([N+](=O)[O-])c2)cc1F	18	21	1	?	-2.0	-12%	-12
COc1ccccc1CC(=O)Nc1cc(C)on1	-3	.	7	0.2%	-0.2	.	-2
COc1ccccc1-n1c(=S)[nH]c2c(sc(=S)n2-c2ccc(C)cc2C)c1=O	-16	8	?	1.1%	1.8	50µM*	-1

# Single records (already shown). Screens in order: Six1-Eya2 inh, TRPV1 potentiator, CtBP-E1A blk, PINK1 expr mod, D2 agonist, Sfp inh, D2 PAM
# `O=C(Nc1ccc2[nH]ncc2c1)c1ccccc1Cl` is listed with -2, -1, -2, 3.1%, -2.9, 6%, -6
# `Oc1cccc2ccc(Nc3ccccn3)nc12` is listed with -91*, 9, -100*, ?, 1.5, -5%, -2
# `CC(C)c1ccc(CNC(=O)C(=O)NCC2CCCO2)cc1` (centres undefined) is listed with 6, 6, 19, 9.0%, -2.8, 11%, 0

# The listing continues.
mol	Six1-Eya2 inh	TRPV1 potentiator	CtBP-E1A blk	PINK1 expr mod	D2 agonist	Sfp inh	D2 PAM
C=CCc1cc(/C=C2/NC(=S)NC2=O)cc(OC)c1O	-10	6	-17	2.1%	-6.9	-12%	-40
O=C(CN1C(=O)c2ccccc2S1(=O)=O)Nc1ccccc1	1	10	3	-0.5%[38.3 µM]	-1.1	13%	-5
O=C(CCNS(=O)(=O)c1ccc(OC(F)(F)F)cc1)NCCc1c[nH]c2ccccc12	-3	8	2	4.9%	7.0	.	7
O=C(Nc1ccc(Br)c2ccccc12)c1ccc2ccccc2c1O	-20	-8	.	25µM*	-0.6	-3%	-46
Cc1cc(-c2nn(-c3ccccc3F)cc2CNCCc2cnc[nH]2)c(C)s1	-25	0	.	1.1%	4.0	-19%	-16
Cc1cc(C)cc(NC(=S)N=Nc2c(O)n(C)c3ccc(S(=O)(=O)N4CCOCC4)cc23)c1	3	9	1	6.1%	-0.6	4%	-11
CCOC(=O)C1=C(CC)Nc2ccccc2N=C1NC(=O)Cn1cnc2ccccc2c1=O	1	-17	33	4.5%[38.3 µM]	-0.8	5%	-9
Cc1cc(C)cc(Nc2ccc([N+](=O)[O-])nc2[N+](=O)[O-])c1	1	25	3	-0.9%[38.3 µM]	-2.1	8%	-6
COc1ccc(-c2nc(CS(=O)(=O)CC(=O)NCc3cccc(F)c3)c(C)o2)cc1	0	-37	3	7.5%	-4.9	0%	-4
CCN(CCCNC(=O)CCCn1c(=O)[nH]c2ccccc2c1=O)c1cccc(C)c1	-15	2	-7	-0.7%	4.1	-7%	12

# Outcome played no part in choosing rows; 3.7% or so of the library scored in one or more.
